Arbovirus inh – blocks arbovirus infection | arbovirus infection cell-based antiviral screen | inhibition, % at 10 µM | 0.37% of 200,000 active | AID 1251;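 active means inhibition from about 30%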;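 further: bluetongue infection of BSR cells; cell survival read as ATP light after 72 h; 0% = infected wells without compound and 100% = uninfected wells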
Mtb bLac sens – beta-lactam sensitization of Mtb H37Rv. inhibition, % at 25 µM. M. tuberculosis H37Rv growth with meropenem, percent inhibition; hits of this screen are not shown here. AID 434955. 0.27% of 330,000 active;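 active means about 74% or more and at least 40 points above the plate without the antibiotic, then above 30% in a dose series; inconclusive means first-round hits that could not be retested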;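 further: growth measured after seven days incubation then overnight dye step; 0% = bacteria only wells and 100% = bacteria with antibiotic; twin plates without the antibiotic show which effects depend on it; some results filed as inactive read as strong as hits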
YopH PTP inh – blocks Yersinia enterocolitica YopH tyrosine phosphatase; fluorescence Ex485/Em525; inhibition, %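 (about 10 µM by stock and volumes)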; 0.16% of 140,000 active;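 active means inhibition of 50% or more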;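 further: controls were vehicle for no effect and minimum signal wells for full effect; inactives centre near -20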
Mtb growth – M. tuberculosis H37Rv growth inhibitors, H37Rv strain (AID 1626); 0.95% of 220,000 active; inhibition, % at 10 µM, or IC50 in µM where a hit was titrated; M. tuberculosis H37Rv growth inhibition; higher % means a stronger effect;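 active means confirmed in a dose series; inconclusive means inhibition above 80% but not taken into the dose series; inactive means below 80% or under 30% at every dose of the series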;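 further: bacteria incubated seven days before Alamar blue readout; 0% = bacteria only wells and 100% = bacteria with antibiotic wells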
RecA intein inh – blocks M. tuberculosis RecA intein splicing | P9WHJ3 | cell-free RecA intein splicing, fluorescence | inhibition, %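 (about 9 µM by stock and volumes)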 | 0.75% of 290,000 active | AID 2221; in the data active means inhibition above about 30%; inconclusive means no clear call, values can overlap the other calls;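 further: 0% = vehicle wells and 100% = reference inhibitor control wells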
Target sequence (P9WHJ3 whole entry, looked up): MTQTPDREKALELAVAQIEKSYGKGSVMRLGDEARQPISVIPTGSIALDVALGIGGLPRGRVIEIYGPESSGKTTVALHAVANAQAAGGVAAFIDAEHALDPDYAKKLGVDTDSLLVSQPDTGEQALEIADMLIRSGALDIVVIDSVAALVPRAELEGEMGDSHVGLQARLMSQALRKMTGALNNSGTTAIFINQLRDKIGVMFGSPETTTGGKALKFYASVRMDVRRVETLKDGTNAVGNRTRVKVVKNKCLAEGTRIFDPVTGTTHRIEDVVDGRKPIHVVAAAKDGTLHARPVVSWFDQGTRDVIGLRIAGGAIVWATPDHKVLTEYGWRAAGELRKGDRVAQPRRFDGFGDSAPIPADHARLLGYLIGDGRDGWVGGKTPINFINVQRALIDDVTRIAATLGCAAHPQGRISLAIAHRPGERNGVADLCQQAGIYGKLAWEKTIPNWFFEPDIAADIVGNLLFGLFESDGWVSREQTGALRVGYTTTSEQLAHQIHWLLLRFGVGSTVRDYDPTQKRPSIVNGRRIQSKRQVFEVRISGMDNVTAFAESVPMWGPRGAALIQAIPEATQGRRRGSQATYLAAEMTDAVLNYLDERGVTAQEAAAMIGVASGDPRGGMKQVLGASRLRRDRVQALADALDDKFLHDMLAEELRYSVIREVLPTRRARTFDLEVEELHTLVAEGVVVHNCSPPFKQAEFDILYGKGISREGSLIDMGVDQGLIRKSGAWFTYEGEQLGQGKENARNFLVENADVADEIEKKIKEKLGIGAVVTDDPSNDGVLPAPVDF
Arbovirus inh repeat – also measured in Arbovirus inh; calls as there; inhibition, %; measured here: 10K subset replicate screen; many hits read low in the repeat;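 first of two repeat runs on a subset; 0% = infected and 100% = uninfected wells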
An asterisk follows results filed as active; ? = inconclusive; / = not tested or not shown. The list is partial; rates above refer to the full screens.

Preview (three entries):
SMILES | Arbovirus inh | Mtb bLac sens | YopH PTP inh | Mtb growth | RecA intein inh | others
COC(=O)C(CC(C)C)Oc1ccc2c(C)cc(=O)oc2c1 (stereo not given) | -2 | 2 | -7 | 4% | 1.5 | Arbovirus inh repeat=-4
CC(C)(C)C(=O)CSc1ncccn1 | 11 | 0 | / | 2% | /
Cc1ccc(NC(=O)c2ccc(NS(=O)(=O)c3ccc4[nH]c(=O)[nH]c4c3)cc2)nc1 | / | -1 | / | / | 2.1

All compounds of this part, previewed entries included:
SMILES | Arbovirus inh | Mtb bLac sens | YopH PTP inh | Mtb growth | RecA intein inh | others
COC(=O)C(CC(C)C)Oc1ccc2c(C)cc(=O)oc2c1 (stereo not given) | -2 | 2 | -7 | 4% | 1.5 | Arbovirus inh repeat=-4
CC(C)(C)C(=O)CSc1ncccn1 | 11 | 0 | / | 2% | /
Cc1ccc(NC(=O)c2ccc(NS(=O)(=O)c3ccc4[nH]c(=O)[nH]c4c3)cc2)nc1 | / | -1 | / | / | 2.1
CC(C)[C@H]1C(=O)O[C@H](C(C)C)C(=O)N(C)[C@@H](C(C)C)C(=O)O[C@H](C(C)C)C(=O)N(C)[C@@H](C(C)C)C(=O)O[C@H](C(C)C)C(=O)N1C | -7 | 100 | / | 7.3µM* | 8.8
COc1ccccc1NC1=NC(c2ccc(Cl)cc2)N=C(N)N1 (stereo not given) | -10 | 2 | 2 | -3% | 0.2
CS(=O)(=O)c1cnc2c(S(=O)(=O)c3ccccc3)cnn2c1N | 1 | -2 | / | -7% | -1.7
OCCN(CCO)CC(O)CN1c2ccccc2Sc2ccccc21 (stereo not given) | / | -4 | / | / | -0.7
Cc1cc(C)nc(/N=C(\N)Nc2ccc(SC(F)F)cc2)n1 | / | -6 | / | 7% | 2.0
CCOC(=O)N1CCC(NC(=O)c2ccc3c(=O)n4c(nc3c2)CCCC4)CC1 | 0 | -3 | -25 | -8% | 1.3
COc1ccccc1CNC(=O)C1CCCC1 | / | -4 | / | / | -2.7
CCOC(=O)C1=C(CC)Nc2ccccc2N=C1NC(=O)c1ccc(S(=O)(=O)N2CCOCC2)cc1 | 2 | 4 | / | 6% | /
CN1C(=O)/C(=C/c2ccc(N3CCCCCC3)o2)C(=O)NC1=S | -14 | 92 | -11 | ? | -3.3

For reference, 4 of the compounds above:
SMILES | Arbovirus inh | Mtb bLac sens | YopH PTP inh | Mtb growth | RecA intein inh | others
COC(=O)C(CC(C)C)Oc1ccc2c(C)cc(=O)oc2c1 (stereo not given) | -2 | 2 | -7 | 4% | 1.5 | Arbovirus inh repeat=-4
CC(C)(C)C(=O)CSc1ncccn1 | 11 | 0 | / | 2% | /
Cc1ccc(NC(=O)c2ccc(NS(=O)(=O)c3ccc4[nH]c(=O)[nH]c4c3)cc2)nc1 | / | -1 | / | / | 2.1
CC(C)[C@H]1C(=O)O[C@H](C(C)C)C(=O)N(C)[C@@H](C(C)C)C(=O)O[C@H](C(C)C)C(=O)N(C)[C@@H](C(C)C)C(=O)O[C@H](C(C)C)C(=O)N1C | -7 | 100 | / | 7.3µM* | 8.8

Later entries:
SMILES | Arbovirus inh | Mtb bLac sens | YopH PTP inh | Mtb growth | RecA intein inh | others
CC(=O)CCc1ccc(OCC(O)CNCCOc2ccc(C)cc2)cc1 (stereo not given) | / | 1 | / | / | 0.2
Cc1n[nH]c(=O)c2c(NC(=O)CSc3nn(-c4ccccc4)c(=S)s3)oc(C)c12 | / | -10 | / | / | -0.4
COc1ccc(C2CC(=O)C=C(NC3CCCC3)C2)cc1 (stereo not given) | 3 | -5 | -26 | 1% | -0.6
CC1CN(/C(=N\S(=O)(=O)c2ccccc2)c2ccccc2)CC(C)O1 (stereo not given) | / | -12 | / | -9% | -6.0
CCC1=NN(C(=O)C(=O)Nc2ccc(OC)cc2)C(O)(C(F)(F)F)C1 (stereo not given) | 1 | 6 | -20 | -2% | 0.4
CCC(C)(C)NC(=O)C(c1ccccc1Cl)N(Cc1cccnc1)C(=O)CCC(=O)Nc1cc(C)on1 (stereo not given) | / | 3 | / | / | 0.7
Cc1ccc(S(=O)(=O)N(Cc2cc3ccc(C)cc3[nH]c2=O)c2ccccc2)cc1 | / | -7 | / | -6% | 2.5
CSc1ccccc1OCc1cc(C(=O)N2CCc3sccc3C2)no1 | / | 3 | / | / | 2.0
CCn1nc(C)c(/C=N/NC(=O)CSc2ccccn2)c1C | / | 1 | / | -1% | -3.0
CCC(=O)Nc1c2c(nn1-c1ccccc1C)CSC2 | 3 | 6 | -24 | -2% | -0.1
CCOC(=O)c1csc(NC(=O)Nc2cccc(OC)c2)n1 | 6 | / | -29 | -1% | /
CCOC(=O)c1c(-c2cccs2)csc1NC(C)=O | -16 | -8 | -20 | 0% | -0.5
CCN1C(=S)SC(=O)C1=C1C=C(C)N(CCO)C(C)=C1 | 7 | -3 | 5 | -8% | -12 | Arbovirus inh repeat=-1
O=c1c(CN2CCN(c3ccccn3)CC2)coc2ccccc12 | 7 | -3 | -21 | -3% | -1.9
O=C(O)CCN1C(=O)/C(=C/c2cn(-c3ccccc3)nc2-c2cccs2)SC1=S | -12 | / | / | -11% | /
COc1ccc(NC(=O)c2sc3nc(N4CCCC4)c4c(c3c2N)CC(C)(C)OC4)c(OC)c1 | / | 63 | / | / | -13
CCCN(CCC)C(=O)C1CCC(CNS(=O)(=O)c2cccc3nsnc23)CC1 (stereo not given) | / | -2 | / | / | 5.3
Cc1nn(CC(=O)NC(C)c2ccccc2)c(=O)c2ccccc12 (stereo not given) | 0 | 11 | -30 | -2% | 1.3
CCN1C(=O)C(NC(C)=O)c2cc(Br)ccc21 (stereo not given) | -1 | 0 | 17 | 3% | -0.5
O=C(COc1cccc(OC(F)F)c1)Nc1ccc(SC(F)F)cc1 | -4 | 99 | -10 | ? | 4.3
Cc1ccc(NC(=O)c2ccc3c(c2)[nH]c(=O)n3C(C)C)cc1 | -2 | 5 | / | 9% | -0.7
O=C(N1CCOCC1)N1CCC(n2nnc3ccccc32)CC1 | 4 | ? | -28 | -2% | -2.4
CCOC(=O)C1=C(C)NC(=S)NC1c1ccc(-c2cccc(Cl)c2C)o1 (stereo not given) | 1 | 48 | -37 | -2% | 5.6
Cc1ccc(-c2nc3ccccc3s2)cc1NC(=S)NC(=O)/C=C/c1ccco1 | -19 | -3 | -31 | 9% | 2.9
CCOC(=O)C1CCCN(c2c(NCC3CCCN3CC)c(=O)c2=O)C1 (stereo not given) | 4 | -2 | -48 | -5% | 1.3
CCCn1nnc(NC(=O)/C=C/c2cc(Br)ccc2OC)n1 | -4 | -7 | / | 4% | 1.2
CCN1CCN(S(=O)(=O)c2cccc([N+](=O)[O-])c2)CC1 | -2 | -16 | -25 | -4% | -5.2
COc1ccc(CC(=O)Nc2nnc(C(C)(C)C)s2)cc1OC | 2 | 0 | / | -2% | /
O=C(Cc1cccs1)Nc1ccc(F)cc1F | / | -3 | / | / | 1.0
CC(C)(C)n1nc2c(c1NC(=O)COc1ccc3ccccc3c1)CS(=O)(=O)C2 | 3 | -3 | 9 | -2% | 0.3
FC(F)(F)Oc1ccc(NC(=S)NCCCN2CCOCC2)cc1 | 11 | -9 | / | -5% | 3.1
CCN(CCO)Cc1csc2ccc(C(C)(C)C)cc12 | -6 | 5 | -11 | 1% | -6.2
CCOc1ccc(S(=O)(=O)N2CCC(C(=O)NCC3CCCO3)CC2)cc1C (stereo not given) | / | 7 | / | / | 0.6
CCn1ccnc1CN(C)Cc1nc(-c2ccccc2)no1 | -1 | -4 | / | -10% | -2.1
CCCc1ccc(OC(=O)c2cccs2)cc1 | -4 | 46 | -12 | -5% | 0.9
CCCCc1cc(=O)oc2cc(C)cc(OCC(=O)NCc3ccccn3)c12 | / | 6 | / | / | -0.6
Cc1ccc(NC(=O)CSc2nc(=O)n(CCCN3CCOCC3)c3c2CCCC3)cc1 | / | -11 | / | / | -0.3
COc1ccc(C)cc1S(=O)(=O)N(C)CC(=O)NC1CCCC1 | -1 | 5 | -26 | 1% | 5.2
Cc1ccccc1CSCC(=O)Nc1ccccc1Br | / | 4 | / | / | 3.2
COc1ccc(C(=O)n2nc(C)c(Br)c2C)cc1OC | / | 0 | / | / | 1.3
O=C(COC(=O)c1ccc(Br)o1)NCc1cccs1 | 4 | 15 | -15 | 5% | 2.4
O=C(O)Cn1cc2c(n1)CCCCC2 | 1 | -10 | -25 | -6% | 1.7
C=CCOc1ccc2nc(NC(=O)OC)[nH]c2c1 | -8 | -1 | -33 | -12% | -0.6
COc1cc(N)ccc1C(=O)O | 7 | -5 | 2 | 6% | -3.3
COc1ccc(NC(=O)Nc2nnc(CC(=O)Nc3ccccc3)s2)cc1 | / | 1 | / | / | 1.1
O=S(Cc1ccc(Br)cc1)Cc1nnc(SCc2c(Cl)cccc2Cl)n1-c1ccccc1 (stereo not given) | -17 | -4 | -26 | / | 8.4
O=C(NCCN1CCC(Cc2ccccc2)CC1)C1CCN(S(=O)(=O)N2CCC3(CC2)OCCO3)CC1 | -5 | 0 | / | 4% | -0.1
Fc1ccc(Nc2ncnc3ccccc23)cc1 | / | 0 | / | / | -0.8
Cc1ccc(N/C=C(\C#N)S(=O)(=O)c2ccccc2)cc1 | -3 | -1 | / | 1% | -0.6
CCCCC(=O)NC(NC(=O)CCCC)c1ccc(OCC(C)C)c(OC)c1 | 0 | 3 | -25 | -5% | 1.5
CCOC(=O)CNC(=O)CSc1nnc(-c2cccc(C)c2)n1-c1ccc(OC)cc1 | -2 | -1 | -11 | 4% | 1.1
O=C(c1ccccc1)N1N=C(c2ccccc2)CC1c1ccc2nccnc2c1 (stereo not given) | 11 | 10 | -27 | 4% | 2.7
C[C@@]12C(=O)N(c3ccc(F)cc3)C(=O)N1[C@@H]1c3ccccc3OC[C@@H]1[C@H]2c1ccccc1 | / | -4 | / | / | 10.0
CN=C1SC(CC(=O)Nc2sc(C)c(C)c2C(=O)OC)C(=O)N1C (stereo not given) | 1 | 2 | 17 | 1% | 3.5
CC(=O)NC12CC3CC(C1)CC(C(=O)Nc1c(C)n(C)n(-c4ccccc4)c1=O)(C3)C2 | / | -6 | / | / | -1.0
CCOC(=O)N1CCN(C(=O)COc2cccc3c2CCN(Cc2cccc(C)c2)C3=O)CC1 | -4 | 5 | -24 | / | 5.8
COC(=O)c1[nH]c2cc(OC)ccc2c1NC(=O)c1c(F)cccc1F | / | 4 | / | 10% | 4.1
CC(=O)Nc1ccc(NC(=O)C2CCCN2C(=O)Nc2cccc(F)c2)cc1 (stereo not given) | / | -9 | / | / | -0.5
Cc1ccc(OC(C)C(=O)Nc2ccc(S(=O)(=O)N3CCOCC3)cc2)cc1 (stereo not given) | / | -6 | / | / | 3.9
O=C(O)C1CC=CCC1C(=O)Nc1ccccc1C(=O)N1CCN(c2ccc(Cl)cc2)CC1 (stereo not given) | 1 | 0 | / | -10% | -2.5

Other compounds:
SMILES | Arbovirus inh | Mtb bLac sens | YopH PTP inh | Mtb growth | RecA intein inh | others
Cc1ccccc1Oc1cc(NC(=O)Cn2cnc([N+](=O)[O-])c2)cc([N+](=O)[O-])c1 | -2 | 2 | / | 7% | 2.7
Cc1cc(C)n(-c2ccc(C(=O)Nc3cccc(S(=O)(=O)N(C)C)c3)cc2)n1 | -3 | 9 | -17 | 6% | -0.3
COc1cc([C@H]2[C@@H]3CCCC[C@]3(O)CCN2CC(=O)Nc2ccc(C)cc2)ccc1O | 0 | 2 | -44 | -17% | -4.9
Cc1cc(C)cc(NC(=O)CN2CCCN(S(=O)(=O)c3ccc(Br)s3)CC2)c1 | -2 | -8 | -31 | 9% | 11
CN(Cc1ccc(F)cc1)C(=O)c1cccc(OC2CCN(C3CCCC3)CC2)c1 | -11 | -3 | / | 1% | 1.2
CCN(CC)C(=O)c1[nH]cnc1C(=O)N[C@@H](Cc1ccccc1)C(=O)OC(C)(C)C | / | -1 | / | / | 0.2
C=CCn1c(C)cc(C(=O)COC(=O)[C@@H](NC(=O)c2ccccc2Cl)C(C)C)c1C | -6 | 0 | -17 | / | 3.3
O=c1[nH]c(=O)n(Cc2ccco2)c(O)c1C=NCc1ccco1 | -1 | 2 | -2 | 0% | 1.4
COc1ccc(S(=O)(=O)n2ccnc2)c2cccnc12 | -8 | 4 | -5 | -5% | -0.6
O=C(Nc1ccc(N2CCOCC2)c(F)c1)c1cccs1 | / | -8 | / | / | -1.3
Cc1ccc(NC(=O)CSc2n[nH]c(-c3ccccn3)n2)cc1 | / | 5 | / | / | 0.8
COc1cc(C(=O)NCc2cccc3ccccc23)cc(Cl)c1OC | -12 | 4 | -31 | -5% | 13
COc1ccccc1N(C)S(=O)(=O)c1ccc(C(=O)NCCc2ccc(F)cc2)cc1 | / | -2 | / | / | 4.7
COc1cc(C(=O)N2CCCN(c3nc4cc(C)ccc4cc3C#N)CC2)cc(OC)c1OC | / | 1 | / | -1% | -24
Nc1nc2ncc(C(=O)c3cc(F)ccc3O)cc2s1 | / | 3 | / | -6% | /
